Rango dissoc inh: inhibitors of RanGTP-induced Rango-importin beta complex dissociation. hit rate 0.071% among 340,000. O95149+P62826. Biochemical FRET Rango-importin beta, RanGTP-induced dissociation. Potency, µM (titrated, usually from 46.1 µM), for inactives: at the top dose activity change, negative = inhibition; active means falling FRET ratio curve, often poorly fitted, with flat reads before Ran was added; inconclusive means other falling curves, or compound fluorescence or quenching; inactive means flat or rising ratio curve;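 also: potency is read from the fitted curve at half-maximal effect; % of control where 0% means no effect; nearly all actives have a fitted effect of over 45% in size; -100% = wells without RanGTP and RCC1; the record marks most hits as doubtful in a second field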
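Recombinant Rango FRET biosensor (EYFP–snurportin 1 IBB–cerulean CFP10) at 0.1 uM premixed with 0.25 uM importin beta in PBS, 1 mM DTT, 0.02% Tween-20, 0.1% BSA. Compound added 5 min; RanGTP-RCC1 (0.6 uM Ran, 2 mM GTP, 0.2 uM RCC1) then triggers release, read at 45 min.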
Rango complex inh: inhibitors of Rango-importin beta complex formation | hit rate 0.031% among 340,000 | Rango CFP/YFP FRET sensor + importin beta, 45 min | AID 540263 | Potency, µM (titrated, usually from 92.2 µM), for inactives: at the top dose inhibition of complex formation; active = rising FRET ratio curve, often small or poorly fitted; inconclusive = mostly compound fluorescence or quenching in the first reads; inactive = flat curves in all reads;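 also: potency is read from the fitted curve at half-maximal effect; 0% = DMSO wells and 100% = buffer wells lacking importin beta; nearly all actives have a fitted effect of over 15% in size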
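FRET biosensor Rango (snurportin 1 IBB between N-terminal EYFP and C-terminal Cerulean), 50 nM in PBS/1 mM DTT/0.02% Tween-20/0.1% BSA, preincubated 5 min RT with compound; 0.125 microM importin beta added, 45 min RT, CFP/YFP FRET ratio read.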
miR-21 FLuc: raises the signal of a miR-21 reporter. HeLa miR-21 FLuc reporter, luciferase, 48 h. Potency, µM (top dose mostly 38.3 µM), for the others: at the top dose reporter change, positive = more light. 340,000 tested, under 10 active; active = well fitted rising curve with a large enough effect; inconclusive = small, poorly fitted or top-dose-only effect; inactive = no such curve, though single readings can be large or run the other way;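 also: % of control where 0% means no effect; miR-21 action dims this reporter so a rising signal means less miR-21 action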
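HeLa cells endogenously expressing miR-21, stably carrying CMV-driven firefly luciferase with a downstream miR-21 binding site, 2000 cells/well. Titrations up to approximately 40 uM, 48 hours; luciferase luminescence read.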
GLA inh pH 4.5: blocks human alpha-galactosidase A at pH 4.5; P06280; purified enzyme, 4-MU-alpha-Gal fluorescence, pH 4.5; activity change, negative = inhibition, % at 105 µM; 230,000 tested, under 10 active; AID 1467; inconclusive = small, poorly fitted or top-dose-only inhibition, or a rising curve; inactive = flat fitted curve, though single readings scatter; no compound was filed as active;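 also: 0% = full activity with enzyme and -100% = basal without enzyme; dose as in the result columns while the protocol names 77 µM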
Target sequence (P06280 whole entry, looked up): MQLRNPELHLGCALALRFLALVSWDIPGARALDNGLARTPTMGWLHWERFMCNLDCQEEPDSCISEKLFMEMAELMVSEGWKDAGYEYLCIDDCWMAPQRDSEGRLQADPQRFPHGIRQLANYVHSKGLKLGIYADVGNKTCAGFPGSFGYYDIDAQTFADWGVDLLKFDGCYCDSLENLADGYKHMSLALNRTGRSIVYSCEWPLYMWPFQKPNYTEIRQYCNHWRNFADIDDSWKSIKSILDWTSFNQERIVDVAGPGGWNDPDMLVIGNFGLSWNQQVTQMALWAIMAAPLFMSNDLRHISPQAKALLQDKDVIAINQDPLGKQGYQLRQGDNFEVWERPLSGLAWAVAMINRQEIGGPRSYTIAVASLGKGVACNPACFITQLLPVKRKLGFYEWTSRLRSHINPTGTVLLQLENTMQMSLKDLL
* marks the source's active call; other numbers are inactive results; & = joins results of further samples.

Oc1ccc2oc3c(c2c1/C=N/n1cnnc1)CCCC3 was read as Rango dissoc inh -8%, Rango complex inh inconclusive, miR-21 FLuc -14% and GLA inh pH 4.5 3.
Cc1nn2c(=O)c(NC(=O)c3ccc(Cl)cc3)cnc2s1 was read as Rango dissoc inh -2%, Rango complex inh 0.5%, miR-21 FLuc -8% and GLA inh pH 4.5 -4.
`Cc1c(NC(=O)C(C)Sc2ccc3ccccc3n2)c(=O)n(-c2ccccc2)n1C` (stereo not drawn) gave Rango dissoc inh 2%, Rango complex inh 3.9%, miR-21 FLuc -2% and GLA inh pH 4.5 1.
CC(=O)C[C@H]1c2ccccc2S(=O)(=O)N1C1CCCCC1 was read as Rango dissoc inh 0% and Rango complex inh -1.5%.
`Cc1cccc(NC(=O)CN(C)C(C)C(=O)Nc2ccc(S(=O)(=O)N3CCCC3)cc2)c1C` (stereo not drawn) gave Rango dissoc inh 4% and Rango complex inh 0.7%.
Cc1nn(C)c(C)c1CN(C)C(=O)C1c2ccccc2Oc2ccccc21 was read as Rango dissoc inh 18%, Rango complex inh 1.8%, miR-21 FLuc -8% and GLA inh pH 4.5 0.
`CN(Cc1cn(Cc2ccccc2)nc1-c1ccc2c(c1)OCO2)Cc1nccn1C` gave Rango dissoc inh 9%, Rango complex inh 3.6%, miR-21 FLuc 0% and GLA inh pH 4.5 4.
`CCCCCc1nc2c(c(=O)c3ccccc3n2C)c(=O)n1Cc1ccc(OC)cc1` gave Rango dissoc inh -8%, Rango complex inh -1.3%, miR-21 FLuc -5% and GLA inh pH 4.5 -5.
`COc1cc(-c2nn3c(-c4ccccn4)nnc3s2)cc(OC)c1OC` gave miR-21 FLuc 1% and GLA inh pH 4.5 0.
O=C(NCCOc1nc(N2CCCCC2)nc(N2CCOCC2)n1)Nc1ccccc1 was read as Rango dissoc inh 3%, Rango complex inh -2.2%, miR-21 FLuc -2% and GLA inh pH 4.5 -11.
`C=CCN(Cc1nc(-c2cc(OC)c3c(c2)OCO3)oc1C)C1CCS(=O)(=O)C1` (stereo not drawn) gave Rango dissoc inh -10%, Rango complex inh 0.0%, miR-21 FLuc -13% and GLA inh pH 4.5 -6.
`O=C(NCC1CCCO1)c1onc(CSc2ccccc2F)c1C(=O)O` (stereo not drawn) gave Rango dissoc inh 14%, Rango complex inh inconclusive, miR-21 FLuc -8% and GLA inh pH 4.5 18.
For Cc1nnsc1C(=O)N1CCN(c2cc(C(F)(F)F)ccn2)CC1 the results were Rango dissoc inh 3%, Rango complex inh -1.4%, miR-21 FLuc -5% and GLA inh pH 4.5 -8.
`COc1ccc(OC)c(C(=O)N2CCC(n3nccc3NC(=O)CC(C)C)CC2)c1` gave Rango dissoc inh -24%, Rango complex inh -1.7% and miR-21 FLuc -8%.
`CNC(=S)N1CCc2cc(OC)c(OC)cc2C1COc1ccc(F)cc1` (stereo not drawn) gave Rango dissoc inh 16%, Rango complex inh 1.0%, miR-21 FLuc -20% and GLA inh pH 4.5 -28.
For CC(=O)c1cnn(-c2ccccc2)c1C the results were Rango dissoc inh -15%, Rango complex inh -0.3%, miR-21 FLuc 0% and GLA inh pH 4.5 -9.
For N#CCCn1nc2c(c1N)CCC2 the results were Rango dissoc inh 0% and Rango complex inh -2.8%.
CCOc1cc(/C=C/C(=O)O)ccc1OCCOc1ccc(F)cc1 was read as Rango dissoc inh -7%, Rango complex inh -0.7% and miR-21 FLuc -14%.
`COCCNC(=O)C/C(C)=N/NC(=O)C(=O)NC1CCCCC1` gave Rango dissoc inh -1%, Rango complex inh 0.5%, miR-21 FLuc -4% and GLA inh pH 4.5 -1.
Screening Cc1cccc(N2C(=O)/C(=C/c3ccccn3)SC2=S)c1 returned Rango dissoc inh 0%, Rango complex inh -0.4%, miR-21 FLuc -4% and GLA inh pH 4.5 -2.
`Cc1cc(C)nc(SCC(=O)Nc2ncc3c(n2)CC(C)(C)CC3=O)n1` gave Rango dissoc inh -4%, Rango complex inh -0.2%, miR-21 FLuc 0% and GLA inh pH 4.5 6.
Cn1c(=O)oc2cc(S(=O)(=O)NCc3ccncc3)ccc21 was read as Rango dissoc inh 5%, Rango complex inh 1.7%, miR-21 FLuc 6% and GLA inh pH 4.5 2.
For COc1cccc(N2CCN(S(=O)(=O)c3ccc(-c4coc(C)n4)cc3)CC2)c1 the results were Rango dissoc inh 1%, Rango complex inh -0.5% and miR-21 FLuc 2%.
Screening CCN(Cc1ccncc1)C(=O)c1ccco1 returned Rango dissoc inh -6%, Rango complex inh 2.0% and miR-21 FLuc -1%.
CCOc1ccc(C(=O)NCC2OCCc3ccccc32)cc1 (stereo not drawn) was read as Rango dissoc inh 0%, Rango complex inh -4.8%, miR-21 FLuc -48% and GLA inh pH 4.5 -6.
COc1cc(C(=O)Nc2ccc([N+](=O)[O-])cn2)cc(OC)c1OC was read as Rango dissoc inh 5%, Rango complex inh 2.0%, miR-21 FLuc 3% and GLA inh pH 4.5 -15.
Screening CCCC(c1nnnn1CCOC)N(Cc1cc2cc(C)c(C)cc2[nH]c1=O)CC1CCCO1 (stereo not drawn) returned Rango dissoc inh -9%, Rango complex inh -4.4%, miR-21 FLuc -8% and GLA inh pH 4.5 -2.
Screening COc1ccc(CC(=O)Nc2ccccc2C(=O)NCCc2ccccc2)cc1 returned Rango dissoc inh 6%, Rango complex inh 0.2% and miR-21 FLuc 4%.
Screening O=C(O)c1cc(C2CC2)nn1-c1ccccc1 returned Rango dissoc inh -9%, Rango complex inh -5.8%, miR-21 FLuc -6% and GLA inh pH 4.5 7.
Screening Cc1ccc(N=Nc2c(C)[nH]n(-c3ccccc3)c2=O)c(C)c1 returned Rango dissoc inh -8%, Rango complex inh -0.2%, miR-21 FLuc -35% and GLA inh pH 4.5 inconclusive.
For O=c1c2cc3c(cc2[nH]c(=S)n1C1CCN(Cc2ccccc2)CC1)OCO3 the results were Rango dissoc inh -11%, Rango complex inh 0.2%, miR-21 FLuc -1% and GLA inh pH 4.5 14.
Screening CCC1(C(=O)c2ccccc2)C(c2cccc([N+](=O)[O-])c2)C1(C(=O)OC)C(=O)OC (stereo not drawn) returned Rango dissoc inh -18%, Rango complex inh 1.6%, miR-21 FLuc 1% and GLA inh pH 4.5 -2.
For O=C1C=C(O)c2cccc3cccc1c23 the results were Rango dissoc inh -5%, Rango complex inh 8.1% and miR-21 FLuc -5%.
Screening CC(C)[C@@H](N)C(=O)N/N=C/c1ccc2nccnc2c1 returned Rango dissoc inh 2%, Rango complex inh inconclusive, miR-21 FLuc -8% and GLA inh pH 4.5 -3.
C=CCNC(=O)N1CCC(n2nccc2NC(=O)CCCc2ccccc2)CC1 was read as Rango dissoc inh -8%, Rango complex inh 4.2% and miR-21 FLuc 2%.
For CCCCOc1ccc(Nc2cc(Cl)ccc2C(=O)O)cn1 the results were Rango dissoc inh -2%, Rango complex inh 0.3%, miR-21 FLuc 5% and GLA inh pH 4.5 -1.
For Cc1ccc(N(CC2CO2)S(=O)(=O)c2ccc([N+](=O)[O-])cc2)cc1 (stereo not drawn) the results were Rango dissoc inh 1%, Rango complex inh 3.2% and miR-21 FLuc 2%.
For COc1ccc2nc(C)cc(Nc3ccc(N4CCN(C)CC4)cc3)c2c1 the results were Rango dissoc inh -12%, Rango complex inh 3.8% and miR-21 FLuc inconclusive.
Cc1cccc(OCCSc2nc(N)cc(N)n2)c1 was read as Rango dissoc inh 19%, Rango complex inh -0.9%, miR-21 FLuc -47% and GLA inh pH 4.5 4.
`CCCn1c2ccccc2c2cnn(CC(=O)N(CC)CC)c(=O)c21` gave Rango dissoc inh 5%, Rango complex inh 0.0% and miR-21 FLuc -6%.
`Cc1cc(/C=C2\SC(=O)NC2=O)c(C)n1-c1ccc(N(C)C)cc1` gave Rango dissoc inh -15%, Rango complex inh -3.3% and miR-21 FLuc -14%.
`CC1(C)CC(=O)c2cc(OCC(=O)NCC3CCCO3)ccc2O1` (stereo not drawn) gave Rango dissoc inh -16%, Rango complex inh -6.2%, miR-21 FLuc -20% and GLA inh pH 4.5 15.
COCCNC(=O)c1cnn2c(C(F)F)cc(-c3ccc(C)cc3)nc12 was read as Rango dissoc inh -1%, Rango complex inh inconclusive, miR-21 FLuc -6% and GLA inh pH 4.5 3.
Screening O=C(CSc1ccccn1)Nc1ccc2ccccc2c1 returned miR-21 FLuc -59% and GLA inh pH 4.5 5.
`NCCCCCNC(=O)c1nc[nH]c1C(=O)NCC(=O)OCc1ccccc1` gave Rango dissoc inh 9% and Rango complex inh -2.3%.
`CC(C)(C)C(=O)NC(=S)NCc1ccccc1` gave Rango dissoc inh -6%, Rango complex inh -0.8%, miR-21 FLuc -1% and GLA inh pH 4.5 -3.
O=C(OCC(=O)N1CCN(C(=O)c2ccco2)CC1)c1cc(=O)c2ccccc2o1 was read as Rango dissoc inh -11%, Rango complex inh 2.7%, miR-21 FLuc 3% and GLA inh pH 4.5 -4.
CN(C)C(CNS(=O)(=O)c1ccc(Br)cc1)c1cccnc1 (stereo not drawn) was read as Rango dissoc inh -6%, Rango complex inh 1.1%, miR-21 FLuc -2% and GLA inh pH 4.5 -9.
Screening COc1ccc(C(=O)CSc2n[nH]c(=O)[nH]c2=O)cc1 returned Rango dissoc inh 11%, Rango complex inh 3.7%, miR-21 FLuc 0% and GLA inh pH 4.5 -6.
`Cc1ccc(-n2nnnc2CNC(=O)C2CC(=O)N(c3ccccc3)C2)cc1C` (stereo not drawn) gave Rango dissoc inh 2%, Rango complex inh 5.8% and miR-21 FLuc -4%&10%.
For Cc1ccc(C2=CSC3=NS(=O)(=O)CCN23)cc1C the results were Rango dissoc inh -4%, Rango complex inh -3.6%, miR-21 FLuc -3% and GLA inh pH 4.5 -13.
Screening Cc1ccc(Sc2c(C)nn(C(=O)C3CC3)c2C)cc1 returned Rango dissoc inh -4%, Rango complex inh 4.1%, miR-21 FLuc -3% and GLA inh pH 4.5 -6.
Screening CC(C)OCCCNCc1cccs1 returned Rango dissoc inh -9%, Rango complex inh -1.8%, miR-21 FLuc 2% and GLA inh pH 4.5 7.
For CC(C)NS(=O)(=O)c1ccc(CCC(=O)N2CCCC2)cc1 the results were Rango dissoc inh 21%, Rango complex inh 0.0%, miR-21 FLuc -6% and GLA inh pH 4.5 1.
Screening CC(C)(C)NCC1(CO)SC(N)=NC1=O (stereo not drawn) returned Rango dissoc inh -8%, Rango complex inh -1.9%, miR-21 FLuc 9% and GLA inh pH 4.5 3.
For CN(C)c1ccc(-c2cc([C@H]3[C@@H]4C=CCC[C@@]4(C)C(=O)N3Cc3ccccc3)ccc2F)cc1 the results were Rango dissoc inh 4%, Rango complex inh -1.6%, miR-21 FLuc 0% and GLA inh pH 4.5 -8.
O=S1(=O)CC2N=C(N(Cc3c(F)cccc3Cl)c3ccccc3F)SC2C1 (stereo not drawn) was read as Rango dissoc inh -10%, Rango complex inh -0.3%, miR-21 FLuc -4% and GLA inh pH 4.5 -10.
Screening CCN(CC)CCCNC(=O)C1c2cc(OC)c(OC)cc2C(=O)N(C)C1c1cccnc1 (stereo not drawn) returned Rango dissoc inh -12%, Rango complex inh -0.6%, miR-21 FLuc 0% and GLA inh pH 4.5 -1.
For O=C(c1cnc(N2CCN(c3ccccn3)CC2)c2ccccc12)N1CCN(c2cccc(Cl)c2)CC1 the results were Rango dissoc inh -3%, Rango complex inh -2.7%, miR-21 FLuc -3% and GLA inh pH 4.5 9.
Screening CCOC(=O)C1=NS(=O)(=O)NC(C)=C1 returned Rango dissoc inh -11% and Rango complex inh -3.4%.
`COc1cc2c(cc1NC(=O)c1cccc(Br)c1)CCCC2` gave Rango dissoc inh 0%, Rango complex inh 0.2%, miR-21 FLuc -18% and GLA inh pH 4.5 3.

Retrieved one by one from above:
For CC(C)NS(=O)(=O)c1ccc(CCC(=O)N2CCCC2)cc1 the results were Rango dissoc inh 21%, Rango complex inh 0.0%, miR-21 FLuc -6% and GLA inh pH 4.5 1.
Screening CCN(CC)CCCNC(=O)C1c2cc(OC)c(OC)cc2C(=O)N(C)C1c1cccnc1 (stereo not drawn) returned Rango dissoc inh -12%, Rango complex inh -0.6%, miR-21 FLuc 0% and GLA inh pH 4.5 -1.

This is a subset. The share of hits here may be higher or lower than overall.
